Source: PubChem (Emory University Molecular Libraries Screening Center)
Measles inh – inhibitors of measles virus growth in infected cells. infected Vero cells, GFP fluorescence, 64 h; stronger effect = lower value. z-score (concentration not given with the values). hit rate 0.1% among 33,000. AID 745;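 active = z-score under -3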;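 also: score is relative to mean and SD of the compound wells of a plate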
Active calls of the source: *.

SMILES	Measles inh
Cn1cc(CC(=O)NCc2cccs2)c2ccccc21	0.54
O=[N+]([O-])c1cc(Br)c(O)c(C=NCC23CC4CCC(CC(C4)C2)C3)c1	-1.1
CC1CCCC(C)N1S(=O)(=O)c1cccc([N+](=O)[O-])c1 (stereo unspecified)	-0.72
COc1ccc(N2C(=O)c3cccc4cccc(c34)C2=O)cc1	1.2
COc1cc(OC)cc(C(=O)Nc2c(C)nn(-c3ccccc3)c2C)c1	-1.1
CC1CCN(C(=O)c2ccc(SCc3ccccc3F)c([N+](=O)[O-])c2)CC1	-0.48
Cc1ccc(C)c(N2COc3ccc4cc(Br)ccc4c3C2)c1	-0.37
O=C(CCN1C(=O)c2cccnc2C1=O)N1CCN(c2ccc([N+](=O)[O-])cc2)CC1	-0.36
CCn1cc(C(=O)NCCc2ccc(OC)c(OC)c2)c2c3ccccc3n(C)c2c1=O	0.33
CC(C)=CCn1c(N2CCCCC2)nc2c1c(=O)[nH]c(=O)n2C	-1
COc1ccc(Cl)cc1-c1n[nH]c(=S)n1C	0.28
Cc1ccc(NC(=O)c2cc(-c3ccc(F)cc3)nc3ccccc23)cc1F	0.19
Cc1ccc(N2COc3ccc(Br)cc3C2)cc1C	0.37
Cc1ccc(/C(O)=C2\C(=N)N(c3ccccc3)C3=C(C(=O)CCC3)C2c2ccc([N+](=O)[O-])cc2)cc1 (stereo unspecified)	0.13
O=C(O)C1C2CC=CC2c2cc(Oc3ccccc3)cc3c2N1CC1CC=CC31 (stereo unspecified)	1.6
COc1cc(NS(=O)(=O)c2ccc(NC(=O)c3ccco3)cc2)ncn1	-0.85
CCC1=Nc2cc(C(=O)NCCCN3CCCCC3C)ccc2Sc2ccc(C)cc21 (stereo unspecified)	-0.1
C[n+]1cc(-c2ccc3ccccc3n2)cc2ccccc21	0.08
CC1CC(=O)C(CC(=O)O)C1C[N+](=O)[O-] (stereo unspecified)	-0.68
C#CCS(=O)(=O)c1cccc2cccnc12	-0.44
Cc1ccc(S(=O)(=O)N=C(CN2CCCCC2)N2CCCCC2)cc1	-1.3
COc1ccc(-c2cc(C(F)(F)F)nc(N3CCN(c4ccccc4)CC3)n2)cc1OC	-0.61
Cc1c(CC(C)C)nc(N)c(C#N)c1-c1ccccc1	-0.29
CC1=C(C(=O)OCc2ccc(C)cc2)C(c2cccc([N+](=O)[O-])c2)NC(=O)N1 (stereo unspecified)	0.37
COc1ccc(NC(=O)c2ccc(N3CC4CC(C3)c3cccc(=O)n3C4)c(NC(=O)c3cccs3)c2)cc1Cl (stereo unspecified)	-0.22
O=S(=O)(Nc1ccccc1Cl)c1ccc2nc(-c3ccccc3)[nH]c2c1	0.58
CC(C)c1ccc(CNc2cccc(-c3nc4ccccc4o3)c2)cc1	-0.62
COC(=O)c1ccccc1NC(=O)Cn1c(SCc2ccccc2)nc2ccccc21	-0.34
O=C(c1cnn2c1NC(c1ccco1)CC2C(F)(F)F)N1CCSCC1 (stereo unspecified)	1
Cc1cc(Oc2ccc(-c3cnc4ccccc4n3)cc2[N+](=O)[O-])ccc1Cl	0.53
Cc1ccc2nsnc2c1NC(=O)C(C)C	-0.12
COCCSc1nc2c(c(=O)[nH]c(=O)n2C)n1CCC(C)C	-0.27
CSc1nnc2c(n1)OC(c1ccc(Br)o1)N(C(C)=O)c1ccc(Br)cc1-2 (stereo unspecified)	0.5
O=[N+]([O-])c1ccc(-c2cc(-c3ccccc3)nc(-c3ccccc3)c2)cc1	0.08
COc1ccc(NC(=O)c2ccc(NS(=O)(=O)c3c(C)noc3C)cc2)cc1Cl	2
CCOc1cc(C2Nc3ccccc3NC3=C2C(=O)CC(c2ccc(OC)cc2)C3)cc(Br)c1O (stereo unspecified)	-0.65
Cc1ccc(C2=NN(S(=O)(=O)c3ccc(C)cc3)C(c3ccc(Br)cc3)C2)cc1 (stereo unspecified)	1.4
COc1ccc(Nc2cc(N3CCC(=O)CC3)c3noc4c3c2C(=O)c2ccccc2-4)cc1	-0.12
Cc1ccc(S(=O)(=O)N(CCC#N)C2CCCCC2)cc1	0.1
CCn1c(=S)[nH]c2c(c1=O)C(C)(C)Cc1ccccc1-2	-1.2
CCCOc1ccc(C(=O)Nc2ccc(NC(=O)c3ccccc3)c(C)c2)cc1	-0.16
O=C(O)CCC(=O)Nc1ccc([N+](=O)[O-])cc1	0.43
CCc1c(C)nc2c(C#N)c[nH]n2c1=O	-0.03
CCS(=O)(=O)Nc1ccc(C2=NN(S(=O)(=O)CC)C(c3ccccc3F)C2)cc1 (stereo unspecified)	1.8
COc1ccc(OC)c(NC(=O)CCNS(=O)(=O)c2cccs2)c1	1.7

Random excerpt: 7 compounds from above
SMILES	Measles inh
COCCSc1nc2c(c(=O)[nH]c(=O)n2C)n1CCC(C)C	-0.27
COc1ccc(OC)c(NC(=O)CCNS(=O)(=O)c2cccs2)c1	1.7
Cc1ccc(C2=NN(S(=O)(=O)c3ccc(C)cc3)C(c3ccc(Br)cc3)C2)cc1 (stereo unspecified)	1.4
CCOc1cc(C2Nc3ccccc3NC3=C2C(=O)CC(c2ccc(OC)cc2)C3)cc(Br)c1O (stereo unspecified)	-0.65
O=C(O)CCC(=O)Nc1ccc([N+](=O)[O-])cc1	0.43
CSc1nnc2c(n1)OC(c1ccc(Br)o1)N(C(C)=O)c1ccc(Br)cc1-2 (stereo unspecified)	0.5
CCCOc1ccc(C(=O)Nc2ccc(NC(=O)c3ccccc3)c(C)c2)cc1	-0.16

In another format: 6 of the compounds above
Measles inh	Molecule
1.4	Cc1ccc(C2=NN(S(=O)(=O)c3ccc(C)cc3)C(c3ccc(Br)cc3)C2)cc1 (stereo unspecified)
-0.12	COc1ccc(Nc2cc(N3CCC(=O)CC3)c3noc4c3c2C(=O)c2ccccc2-4)cc1
0.1	Cc1ccc(S(=O)(=O)N(CCC#N)C2CCCCC2)cc1
-1.2	CCn1c(=S)[nH]c2c(c1=O)C(C)(C)Cc1ccccc1-2
-0.16	CCCOc1ccc(C(=O)Nc2ccc(NC(=O)c3ccccc3)c(C)c2)cc1
0.43	O=C(O)CCC(=O)Nc1ccc([N+](=O)[O-])cc1

Further records follow.
SMILES	Measles inh
COc1ccc(-c2c(C(F)(F)F)oc3c(CN(C)C4CCCCC4)c(O)ccc3c2=O)cc1OC	1.6
CC(C)(C)c1nnc(NC(=O)c2cccs2)s1	-0.49
COCCn1c(=S)[nH]c2cc(C(=O)N3CCC(C(N)=O)CC3)ccc2c1=O	-0.23
Cc1cccc(CC2CC(=O)N(c3ccccc3)C2=O)c1 (stereo unspecified)	-0.18
CC(=O)C1=C(O)C(=O)N(CCc2ccccc2)C1c1ccc([N+](=O)[O-])cc1 (stereo unspecified)	-0.76
CN1CCN(C(=O)CSc2cc(=O)n(C)c3ccccc23)CC1	-0.45
O=c1c2sc3ccc([N+](=O)[O-])cc3c2[nH]c(=S)n1CCN1CCOCC1	-0.04
Cc1ccc(C2C(=O)N(C3CCCCCC3)CC(=O)N2Cc2ccc(F)cc2)cc1 (stereo unspecified)	0.34
CCOC(=O)c1ccc(NC(=O)c2c(NCc3ccc(C)o3)sc3c2CCCC3)cc1	0.4
CCOC(=O)c1c(C)oc2ccc(NS(=O)(=O)c3cc([N+](=O)[O-])ccc3C)cc12	-0.25
Cc1cc(C)nc(SCC(=O)Nc2sc3c(c2C(N)=O)CCCC3)n1	-0.32
CCn1cnc2sc(C(=O)Nc3cc(OC)ccc3OC)c(C)c2c1=O	-2.3
COc1ccc(Cl)cc1S(=O)(=O)N1CCN(CC(=O)Nc2ccc(-c3nc4ccc(C)cc4s3)cc2)CC1	-0.41
COC(=O)C1=CN(C)C=C(C(=O)OC)C1c1ccccc1OC	-0.16
CC(=O)N1c2c(cc(Br)cc2S(=O)(=O)Nc2cc(Cl)ccc2C)CC1C (stereo unspecified)	-0.69
Cc1cc2c(cc1C)C(c1ccccc1F)CC(=O)N2 (stereo unspecified)	-0.64
CC(=O)c1c(C)oc2c(Cl)cc(NS(=O)(=O)c3cc(C)ccc3C)cc12	0.83
O=C(Nc1ccc(NC(=O)c2ccccc2)c(Br)c1)c1ccc(Cl)c([N+](=O)[O-])c1	0.08
Cc1cc(C)c(C#N)c(Nc2ccc(Cl)cc2)n1	0.7
CC(C)CCNC(=O)C1CCCN(S(=O)(=O)N2CCCCCC2)C1 (stereo unspecified)	-0.48
CCOc1ccc(-n2c(SCC(=O)Nc3nc4ccccc4s3)nc3c(c2=O)SCC3)cc1	1.8
COC(=O)c1ccccc1Oc1c(F)c(F)nc(N2CCCC2)c1F	0.02
CNc1ccc([N+](=O)[O-])cc1-n1cc2c(=O)n(C)c(=O)n(C)c2c1	0.34
CCN(Cc1ccccc1)C(=O)c1cccn2c(=O)c3c4c(sc3nc12)CCCC4	0.36
Cc1ccc(C(=O)NCc2n[nH]c(=S)n2-c2cccc(Cl)c2)cc1C	0.41
O=C1C(=O)N(c2ccc(O)cc2)C(c2ccccc2)/C1=C(\O)c1ccccc1 (stereo unspecified)	-1.8
COc1ccc(C2=NN(S(C)(=O)=O)C(c3ccc(C)cc3)C2)cc1OC (stereo unspecified)	2.1
Cc1cc(OCC(=O)Nc2nc3ccccc3s2)cc(C)c1Cl	-0.46
CCOC(=O)c1ccc2nsnc2c1	-0.46
CC(C)CSc1oc(-c2cccs2)nc1S(=O)(=O)c1ccc(Cl)cc1	0.84
Cc1ccc(NC(=O)Cn2c(Cc3ccccc3)nc3sc4c(c3c2=O)CCCC4)c(Br)c1	-0.6
Cc1c(C(=O)Nc2ccc(C(F)(F)F)cc2)sc2ncnc(N3CCCCC3C)c12 (stereo unspecified)	-0.68
CN(Cc1ccccc1)C(=O)Cn1ncc2c(=O)oc3ccccc3c21	1.2
Cc1nnc2c(N3CCC(C)CC3)nc3ccccc3n12	-1.1
COc1cccc(N2CCC(=O)N2)c1	1
CCCC(=O)NCCc1nc2ccccc2n1CC	-0.57
CC1CC(=O)NN=C1c1ccc(Cl)cc1 (stereo unspecified)	1.3
CCCc1ccc(C#N)c(SCC(=O)N2c3ccccc3Sc3ccccc32)n1	-0.95
Cc1cc(C)c(C2=NN(c3ccccc3)C(c3ccco3)C2)cc1C (stereo unspecified)	-1.4
O=C(Nc1ccc2nn(-c3ccccc3)nc2c1)c1ccc(-c2cccc(Cl)c2)o1	0.38
O=C(Nc1ccc(F)cc1)C1CC(=O)N(c2ccc(Cl)cc2)C1 (stereo unspecified)	-0.73
CCn1c(SCC(=O)Nc2ccc(OC)cc2)nc2ccsc2c1=O	-0.4
COc1cccc2c1OC1(C)CC2NC(=O)N1CCc1ccccc1 (stereo unspecified)	0.5
O=C(CCc1ccccc1)NCCOc1ccccc1	-0.36
O=C(CCC1CCCC1)Nc1c2c(nn1-c1ccc(Cl)cc1)CSC2	0.29
O=C(CSc1nc2ccccc2c(=O)n1C1CC1)NC1CCCC1	-1
COC(=O)c1ccc(NC(=O)C2CCN(C(=O)c3ccccc3)CC2)cc1	1.2
CC(C)(C)C(O)CN1C2=NCCN2c2ccccc21 (stereo unspecified)	-1.3
COc1ccc2nc(SCc3ccc(Cl)cc3)[nH]c2c1	0.1
Cc1ccc(OCC(=O)Oc2cccc(NC(=O)c3ccc(Br)cc3)c2)cc1C	-0.27
Cc1ccccc1CS(=O)(=O)Cc1ccc(C(=O)O)o1	-0.18
CCCNC(=O)c1ccc2c(c1)nc(C)n2-c1ccc(OCC)cc1	-1.7
CC(C)CCn1c(C=Cc2ccccc2)nc2ccccc21	0
Cc1ccc([N+](=O)[O-])cc1S(=O)(=O)Nc1ccc2oc(C)c(C(=O)OC(C)C)c2c1	0.04
COCCn1c(=S)[nH]c2cc(C(=O)NCc3cccnc3)ccc2c1=O	-0.09
O=C(Nc1ccc2c([N+](=O)[O-])cccc2c1)c1ccccc1C(=O)c1ccc(Cl)c([N+](=O)[O-])c1	0.14
CCc1ccccc1NS(=O)(=O)c1ccc2[nH]cc(C(=O)NC(C)CC)c(=O)c2c1 (stereo unspecified)	-0.44
CCOc1cc2c(cc1OCC)C1C(C(=O)N3CCN(C(=O)c4ccco4)CC3)c3ccccc3C(=O)N1CC2 (stereo unspecified)	0.54
CC(=O)c1ccc(OCC(C)C)c(CC(C(N)=O)C(N)=O)c1	-0.64
CC(=O)Nc1ccc(N2C(=O)CSC2c2ccccc2C(F)(F)F)cc1 (stereo unspecified)	-0.47

The closing two records of the part above come first, to join the parts:
SMILES	Measles inh
CC(=O)c1ccc(OCC(C)C)c(CC(C(N)=O)C(N)=O)c1	-0.64
CC(=O)Nc1ccc(N2C(=O)CSC2c2ccccc2C(F)(F)F)cc1 (stereo unspecified)	-0.47
Nc1cc(=O)[nH]c(SCC(=O)Nc2ccc(Br)cc2)n1	-0.68
CC1CCc2c(sc3ncnc(N4CCN(CCO)CC4)c23)C1 (stereo unspecified)	-0.1
CCOC(=O)c1sc2nc(CC(=O)OC)nc(N3CCN(c4ccc([N+](=O)[O-])cc4)CC3)c2c1C	-1.6
COc1ccc(Cl)cc1NC(=O)c1oc2ccc(S(=O)(=O)N3CC(C)CC(C)C3)cc2c1C (stereo unspecified)	-0.35
Cc1ccc(CNc2ncnc3c2cnn3-c2cccc(C)c2)cc1	-0.22
CC1=CCC2CC1NC(=O)CCOCCC(=O)NC2(C)C (stereo unspecified)	2.8
CCc1sc(-c2cc3cc([N+](=O)[O-])ccc3oc2=O)nc1-c1ccc(Cl)cc1	-0.24
CCc1ccc(NC(=O)C2CC(=O)N=C(N)S2)cc1 (stereo unspecified)	-0.39
CSC1=NC(=C2N=C(SC)c3ccccc32)c2ccccc21	0.77
O=C(Nc1ccc(Br)cc1)c1cc(S(=O)(=O)NCCc2ccc(Cl)cc2)ccc1F	0.15
CCN1CCN(C(=O)Cn2ccc3ccccc3c2=O)CC1	0.14
Cn1cc([N+](=O)[O-])c(C(=O)NCc2ccccc2)n1	-0.25
CCSc1nc2sc3c(c2c(=O)n1-c1ccccc1)CCCCC3	1
CCN(CC)C(=O)Cn1c(=O)n(-c2ccc(C)c(C)c2)c(=O)c2c3c(sc21)CCC3	-0.07
CCN(CC)c1ccc2cc(-c3nnc(NCc4ccco4)s3)c(=O)oc2c1	1.7
CCOC(=O)C1C(=O)C=C(c2ccc(OC)c(OC)c2)CC1c1ccccc1OC (stereo unspecified)	-0.67
O=C(NC1CCCCC1)C(c1ccccc1)N1CCc2ccccc21 (stereo unspecified)	1.4
CC(=O)NC1C(=O)N=C(SCC(=O)NC2CCCCC2)NC1=O (stereo unspecified)	1.1
COC(=O)c1ccccc1NC(=O)c1cc([N+](=O)[O-])nn1Cc1ccccc1	-0.5
COc1cc(OC)c(NC(=O)c2sc3nc(C)nc(N4CCOCC4)c3c2C)cc1Cl	1.2
Fc1cccc(CN2CCN(Cc3cccc4ccccc34)CC2)c1	-1.6

These rows are one share of the data; the hit share may differ from the screen's.
